VDR inh: vitamin D3 receptor (human) inhibition; Potency, µM, for inactives: max response, negative = inhibition, hits mostly inhibitors; 400,000 tested, 0.93% active; VDR-SRC2-3 peptide fluorescence polarization, 2 h; P11473; active = well fitted inhibition curve with a large enough effect; inconclusive = small, poorly fitted or top-dose-only effect, or another doubt; inactive = no such curve, though single readings can be large or run the other way; also: series mostly up to about 120 µM
Target sequence (P11473 whole entry, looked up): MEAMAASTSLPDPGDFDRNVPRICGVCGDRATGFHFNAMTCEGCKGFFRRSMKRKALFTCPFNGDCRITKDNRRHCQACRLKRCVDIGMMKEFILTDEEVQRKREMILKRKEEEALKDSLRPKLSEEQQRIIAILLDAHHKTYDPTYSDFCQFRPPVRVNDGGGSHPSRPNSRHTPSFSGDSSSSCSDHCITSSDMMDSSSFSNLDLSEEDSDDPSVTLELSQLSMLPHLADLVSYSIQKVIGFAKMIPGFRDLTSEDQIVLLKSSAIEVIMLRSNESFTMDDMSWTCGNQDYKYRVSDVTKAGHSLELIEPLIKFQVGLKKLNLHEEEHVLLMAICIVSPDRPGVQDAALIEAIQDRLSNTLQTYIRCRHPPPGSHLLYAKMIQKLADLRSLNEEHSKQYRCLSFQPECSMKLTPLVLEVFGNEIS
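After 23 nl compound addition and a short centrifugation, plates sat for 2 hours at ambient temperature; polarization of fluorescence then indicated loss of VDR binding to peptide SRC2-3.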
The depositor's hits bear a star; ? = inconclusive; & = joins results of further samples; [ ] = another dose, or the depositor's remark. % is scaled to controls: 0 for no effect and ±100 for the full control effect; potency is read from the fitted curve at half-maximal effect. Some of the compounds tested; rates above refer to the full screens.

SMILES	VDR inh
CCOc1ccc(C(=O)c2cn(CC(=O)Nc3ccc(F)c(F)c3)c3cc4c(cc3c2=O)OCCO4)cc1	5%
CCOC(=O)N1CCN(C(=O)c2ccc(N(C)S(=O)(=O)c3ccc(C)cc3)cc2)CC1	-15%
Cc1ccc(N2C(=O)c3ccccc3C2(O)c2ccccc2)cc1 (stereo not drawn)	24%
CCNC(=O)/C(C#N)=C/c1c(N2CCOCC2)nc2ccccn2c1=O	22%
CNc1oc(Cc2cccc3ccccc23)nc1C#N	23%
O=C(COc1ccccc1[N+](=O)[O-])N1CCN(c2ccccn2)CC1	9%
CN1CCN(c2nc(-c3ccccc3)nc3c2oc2ccccc23)CC1	6%
CCOc1ccc(C(=O)CC(=O)C(=O)NCCc2ccc(OC)c(OC)c2)cc1	?
CSc1ccccc1C(=O)N1CCCC(CCC(=O)NCc2ccc(F)c(F)c2)C1 (stereo not drawn)	10%
C=C(C)C(=O)N1CC2(CC(c3cccc(NC(=O)/C=C\C=C/C)c3)=NO2)C[C@H]1C(N)=O (stereo partly drawn)	89µM*
COc1ccc(/C=C2\C(=O)ON=C2c2ccccc2)cc1	?
Cc1nc(C)c(NC(=O)N2CCc3ccccc32)cc1NC(=O)N1CCc2ccccc21	6%
CC(C)[C@H](NC(=O)N1CC(=O)Nc2ccccc21)C(=O)N[C@H](Cc1c[nH]c2ccccc12)C(=O)O	-18%
CCOc1ccc(Oc2ccc(Cl)cc2NC(=O)CCNC(C)=O)cc1	-9%
CCn1nc(C)c(CN2CCN(Cc3ccc(OC)c(C)c3C)C(CCO)C2)c1C (stereo not drawn)	107%[activator]
Cc1c(C(=O)Nc2ccc(S(N)(=O)=O)cc2)oc2ccc(Cl)cc12	10%
COC(=O)C1=C(C)N(CCc2ccc(OC)c(OC)c2)C(=O)C1	-2%
Cc1cc(C(=O)NC2CCCc3ccccc32)ccc1[N+](=O)[O-] (stereo not drawn)	-20%
O=C(Nc1ccc2nc(SCc3ccccc3)sc2c1)c1ccccc1F	-1%
COc1ccc(CC(=O)NCC2CCCN(Cc3ccccc3OC)C2)cc1 (stereo not drawn)	?

An excerpt of these results, bar-delimited:
SMILES | VDR inh
CCOC(=O)N1CCN(C(=O)c2ccc(N(C)S(=O)(=O)c3ccc(C)cc3)cc2)CC1 | -15%
CN1CCN(c2nc(-c3ccccc3)nc3c2oc2ccccc23)CC1 | 6%
COC(=O)C1=C(C)N(CCc2ccc(OC)c(OC)c2)C(=O)C1 | -2%
CCOc1ccc(C(=O)c2cn(CC(=O)Nc3ccc(F)c(F)c3)c3cc4c(cc3c2=O)OCCO4)cc1 | 5%

Next section.
SMILES	VDR inh
CC(C)N1C(=O)CCC1C(=O)NC1CCCC1 (stereo not drawn)	16%
Cc1ccc(C(=O)N2CCC(Cc3ccccc3)CC2)cc1S(=O)(=O)N1CCOCC1	-7%
C/C(=N\NC(=O)c1ccc(Cl)cc1)c1cccc(NC(=O)C(C)C)c1	3%
N=c1c2c(n(Cc3ccc(F)cc3)c3c1CCC3)CCC2	10%
Cc1cc(C)cc(N(C)S(=O)(=O)c2nnc(NC(=O)C(C)C)s2)c1	-9%
CCC(=O)Nc1cc(SCCO)cc([N+](=O)[O-])c1	0%
COc1ccc(C2(C)NC(=O)N(CC(=O)Nc3ccc4c(c3)CCC4)C2=O)cc1OC (stereo not drawn)	-1%
O=c1c2c(-c3cccs3)csc2ncn1/N=C/c1ccc(OC(F)F)cc1	-11%
Nc1ncncc1-c1ccc2ccccc2c1	-14%
COc1cccc(NC(=O)c2cc(-c3ccc(C)o3)nc3ccccc23)c1	?
CC(=O)N1CCN(S(=O)(=O)c2ccc(F)c(Cl)c2)CC1	-16%
COc1cc(O)c(C(CCN2CCN(c3ccccc3)CC2)c2cc(OC)c(OC)c(OC)c2)c(OC)c1 (stereo not drawn)	0%&11%
O=C(NCc1ccccc1)C(c1ccccc1F)N(CC1CCCO1)C(=O)c1ccccn1 (stereo not drawn)	-2%
CCOC(=O)[C@H]1[C@H]2COc3ccc(Cl)cc3[C@@H]2N2C(=O)CN(Cc3ccc(OC)cc3)C(=O)[C@@]12C	-27%
CC(=O)N/C(=N/c1nc(C)cc(C)n1)Nc1cccc(C)c1C	-18%
O=C(/C=C\Nc1cccc(F)c1)c1ccc2c(c1)OCO2	0%
CC(C)(C)c1ccc(CN2C(=O)c3ccccc3S2(=O)=O)cc1	-15%
O=C(Nc1ccncc1)c1ccc(S(=O)(=O)Nc2ccccc2)cc1	6%
O=C(CN1CCCCC1)Nc1nnc(-c2ccccc2)s1	-13%
CCC1CCCCN1S(=O)(=O)c1ccc(N2CCCCS2(=O)=O)cc1 (stereo not drawn)	6%
COc1cc(OC)cc(C(=O)NCC(=O)OCC(=O)Nc2ccc3c(c2)OCO3)c1	-5%
CC(=O)N1CCC2(CC1)CCN(c1ccncc1)CC2	5%
CC(=O)Nc1ccc(NC(=O)C(C)OC(=O)CC23CC4CC(CC(Br)(C4)C2)C3)cc1 (stereo not drawn)	31%[activator]
O=C(NC(=S)N1CCN(c2ccc(O)cc2)CC1)c1cccs1	-1%
Cc1ccc(CSC2=Nc3ccccc3C3=NC(CCC(=O)N4CCN(c5ccccc5)CC4)C(=O)N23)cc1 (stereo not drawn)	0%
C=CCN(C(=O)c1csnn1)C(C(=O)NCc1ccc(F)cc1)c1sccc1C (stereo not drawn)	1%
CSC1=NC2(CCCCC2)CC12C=CC(=O)C=C2	-12%
O=C(NC(=S)Nc1cccc2c(O)cccc12)c1ccco1	-23%
O=C(O)c1cn(C2CC2)c2cc(N3CCN(S(=O)(=O)c4ccc5c(c4)OCCO5)CC3)c(F)cc2c1=O	0%
CCOC(=O)c1nnc(-c2ccccc2)nc1NC	5%
CC(C)C1N(C(=O)CN2CCCC2)CCN1S(=O)(=O)c1ccccc1 (stereo not drawn)	-9%
CCn1nc(NC(=O)C2CCCO2)c2cc3cc(C)ccc3nc21 (stereo not drawn)	-5%
Fc1ccccc1/C=N/n1cc(-c2ccccc2)[nH]c1=S	-9%
CCOC(=O)/C=c1\s/c(=C\c2ccc(C#N)cc2)c(=O)n1CC(=O)Nc1cccc(C)c1C	3%
Cc1ccc2occ(C(=O)c3ccco3)c(=O)c2c1	7%
O=C(N/N=C\c1ccc(Oc2ccccc2)cc1)c1csnn1	?
CCCc1cc(N2CCCC(C(=O)Nc3cc(Cl)ccc3OC)C2)n2ncnc2n1 (stereo not drawn)	10%
CCOc1ccc(C(=O)NC2CCN(C(=O)Nc3ccccc3OC)CC2)cc1	-22%
COc1ccccc1N1C(=O)C2C3C=CC(C3)C2(C)C1=O (stereo not drawn)	6%
COc1cccc(Cn2cccc(NC(=O)Nc3cccc(C#N)c3)c2=O)c1	-6%
CC1CCN(S(=O)(=O)c2ccc3c(c2)oc(=O)n3CC(=O)N2CCc3ccccc3C2)CC1	-15%
CCC(C(=O)OCc1csc(CC(=O)Nc2ccccc2C)n1)c1ccccc1 (stereo not drawn)	7%
Cc1ccc(C(=O)NCC(c2ccc(F)cc2)N2CCOCC2)cc1 (stereo not drawn)	5%
COc1cccc(C(=O)OC(C)C(=O)Nc2ccc3c(c2)OCO3)c1 (stereo not drawn)	7%
CCOC(=O)c1oc2cccc(OCC(O)CNC(C)C)c2c1C (stereo not drawn)	-4%
CCOc1ccc(CCNC(=O)CSc2nnnn2-c2ccc(C)cc2C)cc1OCC	7%
Cc1cccc(-n2cc(-c3ccccc3)c3c(N4CCOCC4)ncnc32)c1	-11%
CC(C)=CC(=O)Nc1nc2ccc([N+](=O)[O-])cc2s1	-18%
CC(=O)c1ccc2c3c(cccc13)C(=O)N(c1c(C)nn(C)c1C)C2=O	-2%
Fc1ccccc1Cn1nnc2c(NCCc3ccccn3)ncnc21	-19%
COc1ccccc1CNC(=O)Cn1c(=O)ccc2cc(S(=O)(=O)N3CCCC3)ccc21	5%
COc1ccc(NC(=O)c2cc(CN3C(=O)c4ccccc4C3=O)ccc2OC)cn1	-12%
CCCn1nnnc1NC(=O)COc1ccc(Cl)cc1C	-2%
CNC(=S)N(Cc1ccccc1)Cc1cccnc1	-3%
O=C(O)Cn1cc(/C=C/[N+](=O)[O-])c2ccccc21	?
CCCc1nc(SCC(=O)Nc2cc(C)on2)c2c(=O)n(C)c(=O)n(C)c2n1	0%
CCOc1ccc2c(c1)-c1c(ssc1=S)C(C)(C)N2C(=O)c1ccco1	-8%
CCOC(=O)c1ccc2[nH]c3ccccc3c2c1	-18%
Cc1ccc2cccc(NC(=O)c3cccc4c(Cl)cccc34)c2n1	2%
NC(=O)C1CCN(S(=O)(=O)c2cccc(S(=O)(=O)N3CCCCC3)c2)CC1	5%

Part of the list above in order of heavy-atom count, falling:
SMILES	VDR inh
CCOC(=O)N1CCN(C(=O)c2ccc(N(C)S(=O)(=O)c3ccc(C)cc3)cc2)CC1	-15%
COc1cccc(NC(=O)c2cc(-c3ccc(C)o3)nc3ccccc23)c1	?
CCOc1ccc(Oc2ccc(Cl)cc2NC(=O)CCNC(C)=O)cc1	-9%
C/C(=N\NC(=O)c1ccc(Cl)cc1)c1cccc(NC(=O)C(C)C)c1	3%
CCn1nc(NC(=O)C2CCCO2)c2cc3cc(C)ccc3nc21 (stereo not drawn)	-5%
CCOC(=O)c1ccc2[nH]c3ccccc3c2c1	-18%

Continuation.
SMILES	VDR inh
O=C(NCCCN1CCCC1=O)NC1CCCCC1	-11%
O=C(Nc1cccnc1)c1cc(-c2ccco2)on1	16%
Cc1nc2nc(CSc3ccc(Cl)cc3)cc(=O)n2[nH]1	-1%
O=C(N/N=C/c1ccc2cccnc2c1)c1ccco1	-9%
C=CCN(C(=O)Nc1ccccc1)C1CC(=O)N(c2ccc(OC)cc2)C1=O (stereo not drawn)	4%
CCOC(=O)C1=C(C)N=C2SCCC(=O)N2C1c1ccc(OCc2ccccc2)c(OC)c1 (stereo not drawn)	-9%
Cc1cccc(OCC(=O)Nc2nc3ccc([N+](=O)[O-])cc3s2)c1C	1%
CC(C(=O)Nc1ccccc1)N(C)CCOc1ccccc1 (stereo not drawn)	7%
CCOC(=O)c1cc(-c2ccc(F)cc2)n(CCC(=O)NC2CCC(C)CC2)c1C (stereo not drawn)	-5%
O=C1/C(=C/c2cccnc2)Oc2cc(OS(=O)(=O)c3ccccc3)ccc21	50µM*
O=c1nc(/C=C/c2ccc(O)c(O)c2)oc2ccccc12	-24%
COc1cc2nc(NCC3CCCO3)n3nc(-c4cccnc4)nc3c2cc1OC (stereo not drawn)	-4%
CC(C)COP(=O)(OCC(C)C)C(Nc1ccccc1)c1ccc2c(c1)OCO2 (stereo not drawn)	-17%
CC(C)C[C@@]12C(=O)N(c3cccc(Cl)c3)C(=O)N1[C@H](c1ccc(Cl)cc1)[C@@H]1C(=O)N(C3CCCCC3)C(=O)[C@@H]12	1%
O=C(NCC1CCCO1)C1CC(=O)N(c2cccc(Cl)c2)C1 (stereo not drawn)	7%
Cc1ccc(Nc2c(-c3ccc(N4CCOCC4)cc3)nc3cccc(C)n23)cc1	-9%
Cc1ccc2nc(CN3CCN(S(=O)(=O)c4ccccc4)CC3)oc2c1	10%
COC(=O)C[C@H](NC(=O)Cn1cnc2c(NCc3ccccc3)ncnc21)C(=O)OC	-18%
O=C(NCCN1CCCCC1)c1cccc2c1C(=O)c1ccc(N3CCCC3)cc1S2(=O)=O	14%
CN(c1ccccc1)S(=O)(=O)c1ccc2ccccc2c1	10%
Cc1cc(Cl)ccc1OCC(=O)NNC(=O)c1cccs1	-3%
O=C(NC1CCCC1)c1c[nH]c2ccc(S(=O)(=O)Nc3cccc(C(F)(F)F)c3)cc2c1=O	-13%
Cc1cc(C(=O)OCC(=O)c2ccc(Cl)c([N+](=O)[O-])c2)c2cccc(C)c2n1	-18%
COc1ccc(NC(=O)CSc2ncc(-c3ccc(F)cc3)n2Cc2ccco2)cc1	0%
COC(=O)c1ccc(S(=O)(=O)NCc2ccccn2)n1C	-14%
Cn1ncc2c(NNC(=O)c3ccccc3Cl)ncnc21	-16%
Cc1cc(C)nc(NC2=NCC(=O)N2CCc2c[nH]c3ccccc23)n1	-6%
Cc1cc(NC(=O)CCC(=O)N(Cc2cccs2)C(C)(C)C(=O)NC2CCCCC2)no1	2%
Cc1cc(/C(O)=C2\C(=O)C(=O)N(CCN(C)C)C2c2ccncc2)ccc1OCc1ccccc1 (stereo not drawn)	-15%
COc1ccc(C(=S)N2CCOCC2)cc1OS(=O)(=O)c1ccccc1[N+](=O)[O-]	16%
Cc1ccc(-c2nnc(NC3CCCCC3)c3ccccc23)cc1S(=O)(=O)N1CCN(C)CC1	-2%
CCOC(=O)c1c(C)[nH]c(C(=O)COC(=O)c2ccc(O)cc2O)c1C	3%
CCn1ncc([N+](=O)[O-])c1C(=O)Nc1c(C)cccc1C	12%
COc1ccccc1CCNC(=O)Cn1ccc2cc(S(=O)(=O)N3CCCCC3)ccc21	4%
COc1cc(CCCN2C(=O)C(=O)NC[C@@H]2CC2CCCCC2)cc(OC)c1OC	-12%
O=C(Nc1ccc(F)cc1)Nc1ccc(N2CCOCC2)c2nonc12	-24%
CNC(=S)/N=C(\Nc1ccc(C)cc1)c1ccccc1	-11%
COc1ccc(Cl)cc1-n1nnc(-c2nsc(NC(=O)c3ccccc3Cl)n2)c1C	3%
Cc1ccc(NC(=O)c2ccccc2Cl)cc1-n1cnnn1	-18%
Oc1ccccc1C=NN=Cc1ccccc1Cl	7%
Cc1ccc2nc(COc3ccccc3NC(=O)c3ccccc3F)cc(=O)n2c1	4%
O=C(Nc1ccc(-c2cn3ccccc3n2)cc1)c1cccs1	15%
COc1cccc(-c2nc3ccc(O)cc3c(=O)o2)c1	-1%
CC1=NN(Cc2cc(C(C)(C)C)c(O)c(C(C)(C)C)c2)C(=O)C1	-12%

Compound activity (PubChem)
